StopGo RLuc: lowers the Renilla signal of an FMDV 2A StopGo reporter. 0.32% of 120,000 active. Potency, µM (doses to about 57.5 µM), inactives show top-dose signal change, negative = less light. AID 1745857. HEK cells with a luciferase reporter of 2A StopGo recoding; active means well fitted falling curve with a large enough effect; inconclusive means small, poorly fitted or top-dose-only effect; inactive means no such curve, though single readings can be large or run the other way; further: nearly all actives have a fitted effect of over 55% in size; overnight with compound
StopGo FLuc: FMDV 2A StopGo reporter, firefly signal | HEK cells with a luciferase reporter of 2A StopGo recoding | Potency, µM (top dose mostly 57.5 µM), for inactives: top-dose signal change, negative = less light | 0.23% of 120,000 active; active = well fitted falling curve with a large enough effect; inconclusive = small, poorly fitted or top-dose-only effect; inactive = no such curve, though single readings can be large or run the other way; further: nearly all actives have a fitted effect of over 60% in size; overnight with compound
* marks the source's active call; other numbers are inactive results; [ ] = remark or other dose. On the % scale 0 is the no-effect control and ±100 the full control effect; potency means the concentration at half of the fitted maximal effect.

For COc1ccccc1NC(=O)CSc1ccc(-c2sc(C)nc2C)nn1 the results were StopGo RLuc 20% and StopGo FLuc 5%.
CNC(=O)NC(=O)COc1ccc(C(=O)c2ccc(F)cc2)cc1 was read as StopGo RLuc inconclusive and StopGo FLuc inconclusive.
For CCOc1ccc(-c2nc(CNC(=O)Nc3cccc(C)c3C)c(C)o2)cc1 the results were StopGo RLuc 13% and StopGo FLuc 0%.
`COc1cc(C(=O)OCc2cccc(C#N)c2)cc(OC)c1C` gave StopGo RLuc 31%[activator] and StopGo FLuc 23%.
Screening CN(C)c1ccc(C2CC2N)cc1 (stereo not given) returned StopGo RLuc -3% and StopGo FLuc 113%[activator].
Screening CCCCN(C)CCCNC(=O)c1cc(=O)[nH]c2ccc(S(=O)(=O)N3CCCCC3)cc12 returned StopGo RLuc -6% and StopGo FLuc -17%.
Screening Cn1c(=O)c2c(n3ncnc13)NC(=O)CC2c1cccc(F)c1 (stereo not given) returned StopGo RLuc -4% and StopGo FLuc -12%.
COc1ccc(OC)c(CNC(=O)C2CCCN(c3ncnc4onc(-c5ccc(F)cc5)c34)C2)c1 (stereo not given) was read as StopGo RLuc -7% and StopGo FLuc -5%.
Screening CCN1CCN(c2nc(Nc3ccc(OC)cc3)c3nccnc3n2)CC1 returned StopGo RLuc -22% and StopGo FLuc -12%.
`O=C(Nc1ccc(F)cc1)[C@@H](c1ccccc1)N1Cc2ccccc2C1=O` gave StopGo RLuc 138%[activator] and StopGo FLuc -7%.
`N#Cc1nc(-c2ccc(OCc3ccc(Cl)cc3)cc2)oc1NCCN1CCOCC1` gave StopGo RLuc 23% and StopGo FLuc 0%.
`CN(C(=O)COc1ncnc2ccc(Br)cc12)c1ccccc1` gave StopGo RLuc 19% and StopGo FLuc 2%.
`CC(C)NC(=S)NNC(=O)C(C)C` gave StopGo RLuc -6% and StopGo FLuc -4%.
Screening CCN(CC)C(=O)CN(C)Cc1coc(-c2ccccc2)n1 returned StopGo RLuc 0% and StopGo FLuc 150%[activator].
`Cc1ccc(/C=N/NC(=O)C(c2ccccc2)c2ccccc2)s1` gave StopGo RLuc 19% and StopGo FLuc -4%.
Screening Cc1nc2ccc(C(=O)NCC(C)(C)CN(C)C)cc2nc1C returned StopGo RLuc -15% and StopGo FLuc -2%.
COc1ccc(OC)c(NC(=O)/C=C/c2ccc(C)o2)c1 was read as StopGo RLuc -9% and StopGo FLuc -7%.
`CCCCOc1ccc(C(=O)NCCc2sc(-c3ccc(OC)c(OC)c3)nc2C)cc1` gave StopGo RLuc 19% and StopGo FLuc 0%.
`NC(=O)c1cc(S(=O)(=O)N2CCN(c3ccc(F)cc3)CC2)cs1` gave StopGo RLuc inconclusive and StopGo FLuc inconclusive.
Cc1cccc(-c2cccc3c4c([nH]c23)[C@@H]2C[C@H](N(C)C(=O)c3ccccc3C)[C@H]([C@H](C)O)CN2CC4)c1 was read as StopGo RLuc 5% and StopGo FLuc -6%.

3 structures out of the list, ordered by molecular weight, highest first.
Cc1cccc(-c2cccc3c4c([nH]c23)[C@@H]2C[C@H](N(C)C(=O)c3ccccc3C)[C@H]([C@H](C)O)CN2CC4)c1 was read as StopGo RLuc 5% and StopGo FLuc -6%.
`CN(C(=O)COc1ncnc2ccc(Br)cc12)c1ccccc1` gave StopGo RLuc 19% and StopGo FLuc 2%.
COc1ccc(OC)c(NC(=O)/C=C/c2ccc(C)o2)c1 was read as StopGo RLuc -9% and StopGo FLuc -7%.

Following part.
CCOc1ccc(-c2nc(CSCC(=O)NCc3cccnc3)c(C)o2)cc1 was read as StopGo RLuc inconclusive and StopGo FLuc inconclusive.
Cc1ccc(NC(=O)CSc2nnc3n(CC(C)C)c(=O)c4ccccc4n23)c(C)c1 was read as StopGo RLuc -9% and StopGo FLuc -3%.
For CCN(C(=O)C1CCCO1)C1CC1 (stereo not given) the results were StopGo RLuc -8% and StopGo FLuc -3%.
Screening COc1ccc2c(CCNC(=O)c3ccc(F)cc3)c[nH]c2c1 returned StopGo RLuc 3% and StopGo FLuc 0%.
For COc1cccc(CNC(=O)CCNS(=O)(=O)c2ccc3c(c2)CCCC(=O)N3)c1 the results were StopGo RLuc -1% and StopGo FLuc -11%.
For CCC(Sc1nnc(C)n1-c1ccc(C)cc1)C(=O)Nc1cc(C)on1 (stereo not given) the results were StopGo RLuc -7% and StopGo FLuc 0%.
`CCOc1ccccc1Nc1nc(-c2cc3cccc(OC)c3oc2=O)cs1` gave StopGo RLuc 42%[activator] and StopGo FLuc 41%[activator].
CC(C)(C)c1ccc(-c2nnc(SCc3cccc(S(=O)(=O)N4CCOCC4)c3)n2N)cc1 was read as StopGo RLuc 10% and StopGo FLuc 13%.
CC(C)Cc1nc2sc3c(NCC(C)O)ncnc3c2c2c1CCC2 (stereo not given) was read as StopGo RLuc 17% and StopGo FLuc 27%.
For COc1ccc(C(=O)COC(=O)c2cc(C)nc3ccccc23)cc1 the results were StopGo RLuc -2% and StopGo FLuc 3%.

The last 2 compounds of the part before open the next one.
CC(C)Cc1nc2sc3c(NCC(C)O)ncnc3c2c2c1CCC2 (stereo not given) was read as StopGo RLuc 17% and StopGo FLuc 27%.
For COc1ccc(C(=O)COC(=O)c2cc(C)nc3ccccc23)cc1 the results were StopGo RLuc -2% and StopGo FLuc 3%.
Screening COc1ccc(NC(=O)c2c(C)oc3ccc(O)c(CN4CCCC(C)C4)c23)cc1Cl (stereo not given) returned StopGo RLuc -8% and StopGo FLuc 0%.
For Cc1oc(-c2ccccc2Cl)nc1CS(=O)CC(=O)NCc1ccc(Cl)cc1 (stereo not given) the results were StopGo RLuc 48%[activator] and StopGo FLuc -2%.
`Cc1ccc(F)c(S(=O)(=O)Nc2cccc(NC(N)=O)c2)c1` gave StopGo RLuc 256%[activator] and StopGo FLuc 9%.
`CS(=O)(=O)c1ccc(C(=O)Nc2c(Cl)cc(NC(=O)c3ccccn3)cc2Cl)cc1` gave StopGo RLuc 7% and StopGo FLuc 0%.
For Fc1cc(Br)ccc1OCc1nnc(C2CC2)o1 the results were StopGo RLuc 32%[activator] and StopGo FLuc 224%[activator].
Screening Cc1cccc(COC(=O)c2nn(Cc3ccccc3)c(=O)c3ccccc23)c1 returned StopGo RLuc 0% and StopGo FLuc 2%.
For CC1=C(C(=O)Nc2cccc(F)c2)C2(CCCCCC2)OC1=O the results were StopGo RLuc 12% and StopGo FLuc 6%.
`CCCC(=O)n1nc(-c2cccnc2)nc1NCc1ccc(OC)cc1` gave StopGo RLuc -13% and StopGo FLuc 11%.
COC(=O)COc1nc(-c2ccco2)c2c(c1C#N)CCC2 was read as StopGo RLuc -8% and StopGo FLuc -9%.
Screening Cc1cccc(NC(=O)COC(=O)c2ccc3nc(C)c(C)nc3c2)c1 returned StopGo RLuc -6% and StopGo FLuc 1%.
Screening CCOCCCNC(=O)C(NC(=O)C1CCC(C)CC1)C(C)C (stereo not given) returned StopGo RLuc -14% and StopGo FLuc -12%.
Screening C=C(C)COc1cc(C)cc2oc(=O)c(CC(=O)NCCc3ccc(S(N)(=O)=O)cc3)c(C)c12 returned StopGo RLuc 43%[activator] and StopGo FLuc 37%[activator].
C=C(C)CN(CC)C(=O)CCc1ccco1 was read as StopGo RLuc -1% and StopGo FLuc -8%.
`COc1ccc(CNC(=O)CCc2cn(Cc3cc(C)ccc3C)c3ccccc23)cc1OC` gave StopGo RLuc -15% and StopGo FLuc -19%.
For COc1ccc(C2=Nc3ccccc3N(CC(=O)Nc3cccc(C(C)=O)c3)C(=O)C2)cc1 the results were StopGo RLuc -4% and StopGo FLuc 54%[activator].
Screening O=C(Cn1c(=O)c2cccn2c2ccc(F)cc21)N1CCN(c2ccccc2F)CC1 returned StopGo RLuc -5% and StopGo FLuc -13%.
CC(=O)c1ccc(N2CCN(C(=O)C3CCN(S(=O)(=O)c4cn(C)c(C)n4)CC3)CC2)cc1 was read as StopGo RLuc -1% and StopGo FLuc 22%.
`Cc1ccc(CNC(=O)c2ccc(-c3csc(C4CC4)n3)cc2)cc1` gave StopGo RLuc 0% and StopGo FLuc 69%[activator].
O=[N+]([O-])c1cc(-c2nc(-c3ccccc3)no2)ccc1N1CCN(c2ccccc2)CC1 was read as StopGo RLuc -11% and StopGo FLuc 13%.
`CC(C)n1nc(C(=O)Nc2nc(-c3ccc(F)cc3)cs2)c2ccccc2c1=O` gave StopGo RLuc -4% and StopGo FLuc 3%.

Of the compounds above, three have two or more sulfur atoms:
For COc1ccccc1NC(=O)CSc1ccc(-c2sc(C)nc2C)nn1 the results were StopGo RLuc 20% and StopGo FLuc 5%.
`NC(=O)c1cc(S(=O)(=O)N2CCN(c3ccc(F)cc3)CC2)cs1` gave StopGo RLuc inconclusive and StopGo FLuc inconclusive.
CC(C)(C)c1ccc(-c2nnc(SCc3cccc(S(=O)(=O)N4CCOCC4)c3)n2N)cc1 was read as StopGo RLuc 10% and StopGo FLuc 13%.

Following part:
Cc1[nH]c2ccccc2c1CC(=O)NCc1ccc(CN2CCCC2)cc1 was read as StopGo RLuc -13% and StopGo FLuc -13%.
For CC(Cn1cccn1)NC(=O)N1CCN(Cc2cccnc2)CC1 (stereo not given) the results were StopGo RLuc -6% and StopGo FLuc 6%.
Screening CCc1ccc(NC(=O)C2=C(C)C(=O)OC23CCCCC3)cc1 returned StopGo RLuc 22% and StopGo FLuc 0%.
Screening CCCC(=O)Nc1nnc(Cc2ccccc2F)s1 returned StopGo RLuc -1% and StopGo FLuc 68%[activator].
For CN(C)c1ccc(NC(=O)c2cccc(N(C)C)c2)cc1 the results were StopGo RLuc -2%[1.06 µM] and StopGo FLuc 14%.
`Cc1cc(C)cc(-n2c(SCC(=O)N3CCCC3)nc3c([nH]c4ccccc43)c2=O)c1` gave StopGo RLuc 0% and StopGo FLuc 2%.
For CCc1cccc(NC(=O)CCc2c[nH]c3ccccc23)c1 the results were StopGo RLuc 2% and StopGo FLuc 5%.
Screening O=C(NCCc1cccs1)c1ccc(Cn2c(SCc3cccc(F)c3)nc3cccnc32)cc1 returned StopGo RLuc 44%[activator] and StopGo FLuc 47%[activator].
Screening O=C(Nc1cc(C(F)(F)F)ccc1Cl)C1(F)C(F)(F)C(F)(F)C(F)(F)C(F)(F)C1(F)F returned StopGo RLuc 5% and StopGo FLuc 16%.
`COC(=O)Cn1nnc2sc3c(c2c1=O)CCCC3` gave StopGo RLuc 1% and StopGo FLuc 36%[activator].
For Cc1ccc(CNC(=O)CCc2ncc(-c3ccc(F)cc3)o2)cc1F the results were StopGo RLuc 5% and StopGo FLuc 48%[activator].
For CCOCCCNC(=O)CCc1nnc2ccc(N3CCN(c4cccc(OC)c4)CC3)nn12 the results were StopGo RLuc -5% and StopGo FLuc -9%.
`O=C(NCC1(c2ccccc2)CCCC1)c1cc2c(Cl)nc3ccccc3c2s1` gave StopGo RLuc -10% and StopGo FLuc -10%.
Cc1ccccc1-c1noc(-c2ccccc2OCC(=O)Nc2ccccc2[N+](=O)[O-])n1 was read as StopGo RLuc -7% and StopGo FLuc -12%.
Screening CC(CNC(=O)Cn1ccc2cc(S(=O)(=O)N3CCCCC3)ccc21)c1ccccc1 (stereo not given) returned StopGo RLuc 43%[activator] and StopGo FLuc inconclusive.
`CCc1nnsc1C(=O)N(C)Cc1ccc(Cl)c(Cl)c1` gave StopGo RLuc 1% and StopGo FLuc 15%.
Cc1ccc(NC(=O)CCCc2nnc3n(C)c(=O)c4sccc4n23)cc1C was read as StopGo RLuc 2% and StopGo FLuc 0%.
For CCOC(=O)CSc1nc2c(c(=O)[nH]c(=O)n2C)n1CCCc1ccccc1 the results were StopGo RLuc -2% and StopGo FLuc -3%.
Screening Oc1c(C(c2cccc(Cl)c2)N2CCOCC2)sc2nc(-c3ccco3)nn12 (stereo not given) returned StopGo RLuc 17% and StopGo FLuc 0%.
For Cc1ccccc1CC(=O)NC(C)c1ccncc1 (stereo not given) the results were StopGo RLuc 9% and StopGo FLuc 1%.
For COc1cc(Cl)ccc1OC(=O)c1cn(-c2ccccc2OC)c(=O)c2ccccc12 the results were StopGo RLuc 5% and StopGo FLuc -13%.
CCCCCc1nn2cc(-c3ccccc3)nc2s1 was read as StopGo RLuc 2% and StopGo FLuc 95%[activator].
For CC(C)(C)C(=O)NC1(C(F)(F)F)C(=O)Nc2c1c(=O)[nH]c(=O)n2-c1ccccc1 (stereo not given) the results were StopGo RLuc -5% and StopGo FLuc -23%.
For O=C(Cc1csc(-c2ccccc2)n1)Nc1ccnn1Cc1cccc(Cl)c1 the results were StopGo RLuc 110%[activator] and StopGo FLuc inconclusive.
Screening CN(Cc1cccc(C#N)c1)C(=O)Cc1cccs1 returned StopGo RLuc -1% and StopGo FLuc 11%.
`COc1cccc(NC(=O)C2CC(=O)N(c3ccc(Br)cc3)C2)c1` (stereo not given) gave StopGo RLuc 3% and StopGo FLuc 5%.
Screening CCN(c1ccc(OC)cc1)S(=O)(=O)c1cc(-c2cc(C)no2)ccc1C returned StopGo RLuc -17% and StopGo FLuc inconclusive.
`CCOC(=O)Cc1ccc(NC(=O)N2CCC(CN3CCc4ccccc4C3)CC2)cc1` gave StopGo RLuc inconclusive and StopGo FLuc -12%.
CC(C)CNC(=O)C(=O)Nc1c2c(nn1-c1ccc(Cl)cc1)CSC2 was read as StopGo RLuc -8% and StopGo FLuc -7%.
`CCCC(=O)Oc1c(Sc2ccc(Cl)cc2)c(C)nn1-c1ccccc1` gave StopGo RLuc -6% and StopGo FLuc -14%.
COc1ccc2ccc(OC(=O)c3ccc(CNC(C)=O)cc3)cc2c1 was read as StopGo RLuc -6% and StopGo FLuc 3%.
For CCc1ccc(NC(=O)Cn2nc(SC)c(S(=O)(=O)c3ccc(OC)cc3)c2N)cc1 the results were StopGo RLuc 8% and StopGo FLuc -14%.

Bioassay records from PubChem BioAssay.

Only part of the results is shown. The share of hits here may be higher or lower than overall.
